High-throughput results (PubChem BioAssay)
Rce1 inhib: inhibitors of yeast Ras-converting enzyme; hit rate 0.27% among 290,000; calls only; Q03530; yeast membranes, quenched prenylated peptide cleavage fluorescence; AID 2563;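 active = fall in fluorescence gain of 50% or more versus controls, with final raw signal at or below 3038400; inconclusive = same 50% fall but final raw signal above 3038400; inactive = fall in fluorescence gain under 50%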;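 note: plate controls were neutral control wells for no effect and wells lacking membranes for full effect; tested at 10 µM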
Target sequence (Q03530 whole entry, looked up): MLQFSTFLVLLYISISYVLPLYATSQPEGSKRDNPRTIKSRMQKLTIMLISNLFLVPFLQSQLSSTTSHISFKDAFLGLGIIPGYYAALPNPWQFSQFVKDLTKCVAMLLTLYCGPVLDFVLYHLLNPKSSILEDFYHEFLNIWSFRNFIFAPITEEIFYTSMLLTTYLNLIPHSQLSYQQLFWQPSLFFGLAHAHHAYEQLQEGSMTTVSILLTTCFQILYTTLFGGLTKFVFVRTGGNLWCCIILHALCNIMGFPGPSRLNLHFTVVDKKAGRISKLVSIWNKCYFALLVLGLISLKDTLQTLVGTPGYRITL
HIV Env fusion: HIV envelope-mediated fusion inhibition; hit rate 1.1% among 360,000; inhibition, % at 12.3 µM; HeLa-JRFL Env/CEM21 cell fusion, luciferase; AID 651610;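 active = mean replicate inhibition score of at least 50 and every replicate individually at or above 50; inconclusive = only one of the two criteria met; inactive = mean below 50 and not all replicates reaching 50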;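 note: 0% = plate neutral controls and 100% = maraviroc near 300 nM; one replicate is shown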
MT1-MMP act inh: inhibitors of human MT1-MMP activation; HT1080 RFP-PRO-GFP cells, GFP/RFP ratio fluorescence, overnight; percent of plate control window, DMSO zero; GFP/RFP ratio change, % at 20 µM; hit rate 0.061% among 360,000;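 active = GFP/RFP ratio change of at least 30% with cell ATP level not reduced by more than half and red fluorescence within 50% of control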; note: strong numbers were not always called active
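Compound: 20 µM single dose, 1% DMSO / System: HT1080 RFP-PRO-GFP cells / Controls: DMSO and RFP-L50D-GFP cell wells / Read-out basis: GFP/RFP fluorescence ratio / Schedule: overnight compound exposure at 37 °C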
eIF4H inh: inhibitors of RNA binding by human eIF4H; inhibition, % at 35 µM; eIF4H fluorescence polarization binding assay; hit rate 0.94% among 290,000;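 active = 50% or more with normal probe brightness, or confirmed in later tests; inconclusive = above 50% with abnormal brightness, or retests that disagree; inactive = below 50% or failed in later tests; about a fifth of its hits are not listed in these tables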;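 note: calls also rest on retests at 20 µM and on dose response follow-up; 0% = protein and probe with vehicle and 100% = probe without protein; strong numbers were not always called active; many hits fall short of the cut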
Yeast UUG start: modulators of start codon recognition fidelity in yeast; S. cerevisiae UUG-firefly luciferase reporter, luminescence/redox ratio; activity score, % at 18.7 µM; hit rate 0.13% among 350,000;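 active = replicate mean at a twofold rise or more, about +100% in these data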;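 note: firefly luciferase made from a UUG start codon reports start codon fidelity; reporter light over untreated wells divided by growth signal over untreated wells; some hits fall short of that in this replicate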
CSC inhib: cancer stem cell inhibition; cancer stem cell-like cells viability, luminescence; inhibition, % at 7.5 µM; hit rate 1.1% among 300,000; AID 2717;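 active = mean at 75% or more and at least half the replicates too; inconclusive = mean and replicates disagree; tested in HMLE shEcad cells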;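 note: 0% = median of negative and 100% = median of positive control wells; the first replicate is given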
PABP FP inh: PABP-poly(A) binding inhibition | inhibition, % at 35 µM | P11940 | PABP-poly(A) RNA binding, fluorescence polarization | AID 2014 | hit rate 1% among 290,000;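 active = 50% or more with normal probe brightness, or confirmed in later tests; inconclusive = above 50% with abnormal brightness, or retests that disagree; inactive = below 50% or failed in later tests; about a fifth of its hits are not listed in these tables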;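 note: calls also rest on retests at 20 µM and on dose response follow-up; controls were probe without protein and protein plus probe with vehicle; some compounds called inactive have numbers as strong as hits; many hits fall short of the cut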
Target sequence (P11940 whole entry, looked up): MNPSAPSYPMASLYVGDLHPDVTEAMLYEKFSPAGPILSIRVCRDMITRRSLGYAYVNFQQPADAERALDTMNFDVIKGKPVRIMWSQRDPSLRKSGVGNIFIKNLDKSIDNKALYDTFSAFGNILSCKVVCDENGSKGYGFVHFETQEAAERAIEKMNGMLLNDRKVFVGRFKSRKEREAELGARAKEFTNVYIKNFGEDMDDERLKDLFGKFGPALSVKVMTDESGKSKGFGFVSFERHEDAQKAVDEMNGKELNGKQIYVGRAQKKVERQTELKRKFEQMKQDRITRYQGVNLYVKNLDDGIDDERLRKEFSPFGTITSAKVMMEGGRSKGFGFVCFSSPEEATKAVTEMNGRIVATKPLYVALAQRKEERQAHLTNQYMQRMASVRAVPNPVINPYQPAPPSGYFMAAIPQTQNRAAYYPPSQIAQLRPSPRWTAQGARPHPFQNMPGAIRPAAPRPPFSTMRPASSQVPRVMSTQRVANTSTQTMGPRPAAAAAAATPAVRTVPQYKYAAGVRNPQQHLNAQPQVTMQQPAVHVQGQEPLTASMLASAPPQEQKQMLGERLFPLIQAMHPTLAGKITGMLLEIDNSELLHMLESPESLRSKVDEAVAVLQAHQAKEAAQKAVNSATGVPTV
eIF4H inh retest: recorded beside eIF4H inh, whose call it bears; inhibition, %; compound at 20 µM; confirmation average;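 mean of two retest wells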
PABP FP inh retest: second read-out of PABP FP inh, no call of its own (marks repeat the call); inhibition, %; compound at 20 µM; confirmation repeats;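 mean of two retest wells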
MT1-MMP act inh RFP: also measured in MT1-MMP act inh; calls as there; RFP signal change, %; measured here: RFP expression control read;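 0 = vehicle wells; hits needed this value within 50% of zero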
The depositor's hits bear a star; i = inactive; ? = inconclusive; . = no result given; & = joins results of further samples. An excerpt, so the mix of outcomes need not match the whole.

SMILES	Rce1 inhib	HIV Env fusion	MT1-MMP act inh	MT1-MMP act inh RFP	eIF4H inh	Yeast UUG start	CSC inhib	PABP FP inh	others
O=C(Nc1ccc(OC(=O)N2CCCCC2)cc1)N1CCOCC1	i	43.8	-3.5	-2.5	-16.3	-24.2	-18.0	-2.9
Cc1cccc(NP2(=O)NCCCN2)c1	.	-6.1	1.9	2.5	.	-9.8	.	.
CC(C)NS(=O)(=O)c1ccc(OCC(=O)N2CCN(Cc3ccccc3)CC2)cc1	i	19.0	-2.2	1.1	.	-4.9	2.0	.
C[C@@H]1CN([C@H](C)CO)C(=O)CCCn2nncc2CO[C@H]1CN(C)C(=O)Oc1ccccc1	.	-1.3	2.1	2.9	.	-16.9&-7.8&-0.8	.	.
CNC(C(=O)c1ccccc1)C(OC(C)=O)c1cccc([N+](=O)[O-])c1 (stereo not given)	i	8.5	-6.2	-6.5	-9.3	.	-2.4	-4.5
Nc1c(C(=O)NC2CCCC2)c2nc3ccccc3nc2n1CC1CCCO1 (stereo not given)	i	-18.9	-2.1	-1.1	-2.0	-11.4	16.1	6.6
CCCC(=O)C1C(=O)NC(=O)NC1=O	i	.	4.1	4.7	-13.6	-16.9	3.8	3.3
COc1cccc(CNC2CN3CCC2CC3)c1OC (stereo not given)	i	.	-5.1	-0.1	5.0	-19.6	-12.3	12.5
Cc1ccc(OCC(=O)N2CCCC(N3CCN(c4ccc(F)cc4)CC3)C2)cc1 (stereo not given)	i	8.0	5.7	-4.8	89.6	-5.0	-2.1	0.5	eIF4H inh retest=-3.9;PABP FP inh retest=11.0
CCOP(=S)(OCC)Oc1ccc2c(C)c(Cl)c(=O)oc2c1	.	0.8	-2.8	-5.3	.	-6.8	.	.
OC(CCNCCc1c[nH]c2ccccc12)C(F)(F)F (stereo not given)	i	-11.4	-3.3	-0.1	5.5	-9.5	-2.9	-11.6
CC(=O)N1CC(=O)Nc2ccc(Cl)cc2C1c1ccc(F)cc1 (stereo not given)	i	.	1.0	0.7	5.2	0.0	-4.4	-5.5
O=c1c2ccccc2nc(/C=C/c2ccc(O)cc2)n1-c1cccc(O)c1	i	24.3	-178.8	-8.3	-9.2	.	-7.1	9.8
CC1(CCO)C(=O)NC(=S)NC1=O	.	-83.1	2.7	0.2	.	-22.5	.	.
C#C[C@]1(O)CCC2C3C(CC[C@@]21C)[C@@]1(C)CC[C@@H](O)CC1=C[C@H]3O (stereo not given in full)	.	-17.0	3.0	5.7	.	13.8	2.5	.

The list goes on; it opens with the four that closed the last part.
SMILES	Rce1 inhib	HIV Env fusion	MT1-MMP act inh	MT1-MMP act inh RFP	eIF4H inh	Yeast UUG start	CSC inhib	PABP FP inh	others
CC(=O)N1CC(=O)Nc2ccc(Cl)cc2C1c1ccc(F)cc1 (stereo not given)	i	.	1.0	0.7	5.2	0.0	-4.4	-5.5
O=c1c2ccccc2nc(/C=C/c2ccc(O)cc2)n1-c1cccc(O)c1	i	24.3	-178.8	-8.3	-9.2	.	-7.1	9.8
CC1(CCO)C(=O)NC(=S)NC1=O	.	-83.1	2.7	0.2	.	-22.5	.	.
C#C[C@]1(O)CCC2C3C(CC[C@@]21C)[C@@]1(C)CC[C@@H](O)CC1=C[C@H]3O (stereo not given in full)	.	-17.0	3.0	5.7	.	13.8	2.5	.
COc1ccc(-n2nnnc2C(c2ccccc2OC(F)(F)F)N2CCC3(CC2)C(=O)NCN3c2ccccc2)cc1 (stereo not given)	.	-8.2	-2.0	-9.4	.	-13.7	.	.
CN(C)CCSC1c2ccccc2CSc2ccccc21 (stereo not given)	i	10.3	-8.6	-4.9	.	-1.2	-10.6	.
O=C(O)C(O)(c1ccccc1)C1CCCC1 (stereo not given)	i	-18.3	-0.4	1.6	2.9	-4.3	-11.4	8.8
CC(Cc1ccccc1)[n+]1cc(/N=C(\N)[O-])on1 (stereo not given)	i	.	-16.3	-1.3	-4.8	-12.2	8.9	-6.1
Cc1cccn2c(=O)c3c(nc12)N1CCCCC1C1(C3)C(=O)N(C)C(=O)N(C)C1=O (stereo not given)	i	7.4	1.1	2.2	13.8	-5.0	-10.7	-6.0
Cc1ccc(N2C(=O)NC(=O)/C(=C\c3ccc([N+](=O)[O-])o3)C2=O)cc1	i	.	.	.	?	.	-6.6	1.5
COc1cc(C=C2C(=O)NC(=O)NC2=O)ccc1O	i	1.3	2.0	-0.6	43.1	-20.9	-9.4	5.0
COc1ccc(C(c2nnnn2-c2ccc(OC)cc2)N2CCC(n3c(=O)[nH]c4ccccc43)CC2)cc1 (stereo not given)	.	-10.8	-6.8	-3.9	.	-14.3	.	.
COC(=O)C1=C(c2ccccc2)C[C@@H]2CC[C@H]1N2C(=O)N1CCC(C)CC1	i	7.3	-3.3	-5.5	.	-3.0	-1.8	.
COC(=O)C1=C(c2ccc(OC(F)(F)F)cc2)C[C@@H]2CC[C@H]1N2C(=O)N1CCCC1	.	58.3*	0.1	-27.5	.	5.5	-1.4	.
O=S(=O)(c1ccc(F)cc1)N1CCCCC1c1cccnc1 (stereo not given)	i	4.9	3.0	3.7	3.0	-0.4	-16.3	-2.2
O=C(O)CC[N+](=O)[O-]	i	.	-2.2	0.9	.	-29.4	-2.0	.
O=C(CCCc1ccc(N(CCCl)CCCl)cc1)NCc1ccccc1	.	34.1	-2.9	-5.4	.	-6.1	.	.
O=C(O)c1cn(Cc2ccccc2)nc1-c1ccccc1	i	-3.9	-1.3	2.3	-4.6	-5.0	2.3	2.5
CC1=C2C(=O)C3C(CC=C4CC(OC5OC(O)C(O)C(O)C5CO)CCC43C)C2CCC12OC1CC(C)CNC1C2C (stereo not given)	i	18.7	5.9	4.8	-4.2	29.3	-12.0	15.2
COc1ccccc1OCC#CCN1CCCCCC1	i	-8.0	0.4	1.6	-16.7	.	-0.4	-4.0
c1ccc(CNC2CN3CCC2CC3)cc1 (stereo not given)	.	11.2	2.2	1.4	.	-12.8	.	.
COc1ccc(S(=O)(=O)N2CC3CC(C2)c2cccc(=O)n2C3)cc1 (stereo not given)	i	-1.6	-0.5	-0.7	-4.2	.	-7.0	-10.3
COc1ccc(-n2c(Cc3cccc([N+](=O)[O-])c3)nc3ccccc3c2=O)cc1	i	2.7	-2.5	-2.6	1.6	.	11.5	1.3
COC1=C[C@@H]2[C@@H]3Cc4ccc(OC)c(O)c4[C@]2(CCN3C)CC1=O	.	-15.5	-1.4	2.9	.	-12.8	.	.
O=c1[nH]c(CN2CC=C(c3ccccc3)CC2)nc2scc(-c3cccs3)c12	i	-12.5	-22.4	0.2	9.8	-17.9	-19.3	2.8
Cc1ccc(C)c(CN2CCC(n3nnc4cc(F)ccc43)CC2)c1	i	.	-0.5	0.7	-2.9	-14.8	-1.7	10.9
O=c1[nH]c(=O)n(-c2cccc3ccccc23)c(O)c1C=NCc1ccc2c(c1)OCO2	i	-17.1	-3.3	-2.2	3.9	-6.3	-8.5	-9.0
CCCCCn1c(=O)c(C(=O)Nc2ccccn2)c(O)c2ccccc21	i	33.7	-18.2	-18.3	-3.2	-5.6	19.6	-1.3
Cc1ccccc1-n1c(O)c(/C=C2/C(c3ccccc3)=Nc3ccccc32)c(=O)[nH]c1=O	i	24.6	-7.5	-8.8	?	.	67.4	6.9
COC(=O)C(O)(c1c[nH]c2ccccc12)C(F)(F)F (stereo not given)	i	-7.8	1.0	-1.8	-1.8	-21.1	-16.3	-8.9
COc1ccccc1OCCCn1cc(C(=O)c2ccco2)c2ccccc21	i	-4.3	-0.8	-4.6	-0.4	-10.2	10.3	10.9
CN(CCc1ccccc1)Cc1ccccc1[N+](=O)[O-]	i	.	2.9	5.0	0.4	-17.2	-1.6	3.8
COC(=O)C1=C(c2ccc(OC)c(OC)c2)C[C@@H]2CC[C@H]1N2C(=O)NCCO	.	?	-2.3	1.0	.	-14.0	-18.2	.
COc1ccc(CCC(=O)N2C[C@H]3C[C@@H](C2)c2cccc(=O)n2C3)cc1	i	.	4.0	8.6	-0.9	-9.5	-4.3	-0.1

Among those listed so far, these contain two or more sulfur atoms:
SMILES	Rce1 inhib	HIV Env fusion	MT1-MMP act inh	MT1-MMP act inh RFP	eIF4H inh	Yeast UUG start	CSC inhib	PABP FP inh	others
CN(C)CCSC1c2ccccc2CSc2ccccc21 (stereo not given)	i	10.3	-8.6	-4.9	.	-1.2	-10.6	.
O=c1[nH]c(CN2CC=C(c3ccccc3)CC2)nc2scc(-c3cccs3)c12	i	-12.5	-22.4	0.2	9.8	-17.9	-19.3	2.8

Later entries:
SMILES	Rce1 inhib	HIV Env fusion	MT1-MMP act inh	MT1-MMP act inh RFP	eIF4H inh	Yeast UUG start	CSC inhib	PABP FP inh	others
Clc1ccc(C2NCCc3[nH]cnc32)cc1 (stereo not given)	i	18.3	-1.2	4.9	7.8	0.9	-9.5	-2.9
c1ccc(P(c2ccccc2)c2ccccn2)cc1	i	5.3	-0.2	3.9	-3.3	-19.3	-1.7	-2.3
Fc1cccc(C2NCc3ccccc3-n3cccc32)c1 (stereo not given)	i	-1.8	0.8	5.1	-8.4	1.8	-20.1	19.1
CCn1cc(C=C2C(=O)N(C)C(=O)N(C)C2=O)c2ccccc21	i	20.4	-9.6	3.8	12.6	-8.8	-11.3	2.7
COCCNC(=O)c1c(NC(=O)c2ccco2)n(Cc2ccccc2)c2nc3ccccc3nc12	i	.	-9.4	12.6	17.7	-15.9	-3.4	15.1
CC(=O)N(C1=NCCCS1)c1ccccc1F	i	-3.5	2.2	-2.6	-3.4	-23.1	4.2	-8.4
CC(=O)c1c(O)n(C2CCCCCC2)c(=O)[nH]c1=O	i	.	-23.8	3.5	82.0*	-14.9	2.1	75.6*
Cn1c(=O)cc(SCC(=O)N2CCC3(CC2)OCCO3)c2ccc(Cl)cc21	.	5.6	-0.4	-2.0	-2.3	0.2	-23.8	4.3
Nc1ccccc1C(=O)OCC(=O)c1ccc2c(c1)OCCO2	i	-11.3	4.8	2.6	1.7	.	5.7	18.3
O=c1c2ccccc2nc(-c2ccccc2)n1-n1cccc1	i	.	2.7	2.0	3.3	7.4	.	-13.7
COc1ccc(-n2c(O)c(C(C)=NCC3CCCO3)c(=O)[nH]c2=O)cc1 (stereo not given)	i	-75.8	0.3	1.1	-8.6	.	-1.3	-4.4
O=C(CN1CC=C(c2ccccc2)CC1)NC(=O)NC1CCCCC1	i	2.8	-1.3	4.2	2.9	-12.1	-22.7	-1.8
O=P(Oc1ccccc1)(N1CCOCC1)N1CCOCC1	.	-16.4	4.3	7.6	.	-19.8	.	.
COc1ccc(C(CC(=O)c2ccc3c(c2)OCO3)c2c(O)c3ccccc3oc2=O)cc1OC (stereo not given)	.	-28.7	-3.4	-1.4	.	-4.8	.	.
CC(C)n1c(=O)c(C=Nc2ccc(Br)cc2)c(O)n(Cc2ccco2)c1=O	.	-27.0	-16.8	4.8	95.8	.	41.3	6.0*	eIF4H inh retest=15.5;PABP FP inh retest=52.0*
COc1cc2[nH]c(=O)n(-c3cccc(Cl)c3)c(=O)c2cc1OC	i	39.2	2.4	2.2	-2.6	-15.0	-9.1	-1.6
